GLA inh pH 4.5: inhibitors of human alpha-galactosidase A at pH 4.5 | activity change, negative = inhibition, % at 105 µM | AID 1467 | 230,000 tested, under 10 active | purified enzyme, 4-MU-alpha-Gal fluorescence, pH 4.5 | P06280; inconclusive = small, poorly fitted or top-dose-only inhibition, or a rising curve; inactive = flat fitted curve, though single readings scatter; no compound was filed as active;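 note: 0% = full activity with enzyme and -100% = basal without enzyme; dose as in the result columns while the protocol names 77 µM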
Target sequence (P06280 whole entry, looked up): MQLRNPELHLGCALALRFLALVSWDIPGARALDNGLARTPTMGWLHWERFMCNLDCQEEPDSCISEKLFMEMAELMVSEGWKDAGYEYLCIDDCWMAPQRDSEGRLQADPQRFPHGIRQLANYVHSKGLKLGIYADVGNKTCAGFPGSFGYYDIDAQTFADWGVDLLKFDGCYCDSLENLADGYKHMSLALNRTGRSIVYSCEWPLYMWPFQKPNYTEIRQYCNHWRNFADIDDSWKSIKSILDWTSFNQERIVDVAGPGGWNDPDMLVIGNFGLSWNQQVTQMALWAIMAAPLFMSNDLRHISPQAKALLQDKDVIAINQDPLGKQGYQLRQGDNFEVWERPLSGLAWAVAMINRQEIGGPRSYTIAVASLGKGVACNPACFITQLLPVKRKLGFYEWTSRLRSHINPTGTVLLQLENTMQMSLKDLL
Rango dissoc inh: inhibitors of RanGTP-induced Rango-importin beta complex dissociation; Biochemical FRET Rango-importin beta, RanGTP-induced dissociation; Potency, µM (series often up to 46.1 µM), for inactives: at the highest dose activity change, negative = inhibition; 340,000 tested, 0.071% active; AID 540253; active means falling FRET ratio curve, often poorly fitted, with flat reads before Ran was added; inconclusive means other falling curves, or compound fluorescence or quenching; inactive means flat or rising ratio curve;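 note: potency is the fitted concentration of half-maximal effect; % of control where 0% means no effect; nearly all actives have a fitted effect of over 45% in size; -100% = wells without RanGTP and RCC1; the record marks most hits as doubtful in a second field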
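Compounds preincubate 5 min with complex of recombinant Rango and importin beta in PBS with 1 mM DTT. Ran (0.6 uM) loaded with 2 mM GTP plus 0.2 uM RCC1 starts dissociation; FRET is recorded 45 min later.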
miR-21 reporter: raises the signal of a miR-21 reporter | HeLa miR-21 FLuc reporter, luciferase, 48 h | Potency, µM (series often up to 38.3 µM), inactives show at the top dose reporter change, positive = more light | 340,000 tested, under 10 active; active = well fitted rising curve with a large enough effect; inconclusive = small, poorly fitted or top-dose-only effect; inactive = no such curve, though single readings can be large or run the other way;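 note: % of control where 0% means no effect; miR-21 action dims this reporter so a rising signal means less miR-21 action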
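Using DMEM plus 10% FBS, HeLa miR-21-FLuc cells are incubated with test compounds (final up to about 40uM) for 48 hours; firefly luciferase signal is then imaged following reagent-mediated lysis.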
Rango complex inh: Rango-importin beta binding inhibition | Rango CFP/YFP FRET sensor + importin beta, 45 min | Potency, µM (doses to about 92.2 µM), without a hit: top-dose inhibition of complex formation | 340,000 tested, 0.031% active; active = rising FRET ratio curve, often small or poorly fitted; inconclusive = mostly compound fluorescence or quenching in the first reads; inactive = flat curves in all reads;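 note: potency is the fitted concentration of half-maximal effect; 0% = DMSO wells and 100% = buffer wells lacking importin beta; nearly all actives have a fitted effect of over 15% in size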
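Inhibition scored from the CFP 486 nm/YFP 530 nm FRET ratio 45 min after adding 0.125 microM importin beta to 50 nM Rango biosensor preincubated 5 min with compound (room temperature, PBS with DTT, Tween-20, BSA). No-importin wells as positive control.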
* = called active by the depositor; ? = inconclusive; . = not tested or not shown; & = joins results of further samples. These rows are one share of the data. The share of hits here may be higher or lower than overall.

SMILES | GLA inh pH 4.5 | Rango dissoc inh | miR-21 reporter | Rango complex inh
CCOC(=O)NN1C(=O)c2ccccc2NC1c1ccc(OC)c(OC)c1 (centres undefined) | 1.9 | -14.9% | 3.2% | -1.5%
CCc1cc2c(NCCC(=O)O)ncnc2s1 | 1.7 | -12.8% | -1.3% | -2.9%
CCOC(=O)CC(NC(=O)Cc1cccs1)c1ccccc1Cl (centres undefined) | . | 32.1% | -1.6% | 0.1%
O=S1(=O)CCOC[C@H](Cc2ccccc2)N1Cc1cccc(Cl)c1 | . | 5.6% | . | 1.7%
Cc1cccc(NC(=S)NNC(=O)c2csc3c2CCCC3)c1 | -26.4 | 10.7% | -53.2% | 4.6%
CC(=O)Nc1ccc(S(=O)(=O)N2CCSC2c2ccc(C)cc2)cc1 (centres undefined) | -2.0 | -0.1% | 13.3% | -2.9%
COC(=O)c1[nH]c2cccc(C)c2c1NC(=O)CN1CCN(c2ccccc2OC)CC1 | 6.0 | 2.1% | 2.2% | 1.8%
CCNc1ccc(Br)cc(C(=O)/C=C/c2ccccc2Cl)c1=O | . | -22.0% | . | ?
O=C(c1cc(-c2ccccc2Cl)nc2ccccc12)N1CCOCC1 | . | -4.6% | 2.1% | -0.8%
O=C(Cc1c[nH]c2ccccc12)N/N=C/c1ccc(F)cc1 | -10.2 | 0.2% | -10.8% | -0.1%
CC1CCCN(C(=O)COC(=O)CNC(=O)c2ccc(Br)cc2)C1 (centres undefined) | . | -3.0% | . | 3.5%
CCn1c2ccccc2c2cc(NC(=O)C(=O)NCC3CCCO3)ccc21 (centres undefined) | -0.4 | 9.7% | 2.2% | -0.9%
COc1ccc(SC[C@H](C)CN2CC[C@H](C(C)(C)C)CCC2=O)cc1 | . | 9.2% | . | -1.2%
O=C(C1CCN(c2nnc(-n3cccc3)s2)CC1)N1CCCCC1 | . | -5.8% | -28.7% | -4.5%
Cn1cc(CN2CCC(C(=O)Nc3ccc(Oc4ccccc4F)cc3)CC2)cn1 | . | 2.5% | -1.4% | -3.5%
CCOC(=O)C1(Cc2ccccc2C(F)(F)F)CCN(C2CCN(C(C)=O)CC2)CC1 | 3.5 | -7.4% | -4.4% | 3.4%
COc1ccccc1NC(=O)NCCC1=CCCCC1 | -4.0 | -16.9% | -5.5% | -4.4%
COc1ccc(C(=O)N2CCC(C(=O)O)CC2)c2ccccc12 | . | 6.3% | -7.4% | ?
O=C(NCC(c1cccs1)N1CCOCC1)c1cccc(S(=O)(=O)Nc2ccc(F)cc2)c1 (centres undefined) | . | -10.1% | . | -0.7%
O=C(COc1ccccc1)N1CCN(c2ccccc2)CC1 | -2.4 | 15.5% | -12.0% | -3.0%
CCCN1C(=O)/C(=C2\SC(N3CCCCC3)=NC2=O)c2ccccc21 | -13.0 | -10.7% | -54.4% | -3.5%
CNC(=O)COC(=O)c1ccc(Cl)c(S(N)(=O)=O)c1 | 9.6 | -6.4% | -5.3% | 4.0%
COCCNC(=O)c1ccc2nc(Cc3ccc(OC)c(OC)c3)oc2c1 | . | -16.4% | -47.2% | -0.5%
CCn1c(C)cs/c1=N\C(=S)Nc1ccccc1C | -8.3 | -16.9% | -12.9% | 0.1%
COc1ccc(N2CCN(C(=O)CCCn3nnnc3CN3CCOCC3)C(C)C2)cc1 (centres undefined) | . | -5.3% | -0.2% | -3.0%
CSc1ccc(/C=C/c2cc(=O)c3ccccc3[nH]2)cc1 | 0.9 | ? | -27.0% | ?
NC(=O)CNC(=O)[C@@H]1CC2(CC(c3cccc(Br)c3)=NO2)CN1C(=O)c1ccc(Br)cc1 (some centres undefined) | -8.2 | -17.3% | 1.1% | 1.9%
OCCNc1c2ccccc2nc2ccccc12 | 9.4 | ? | ? | ?
Cc1cccc(N(CC(=O)NCC2CCCO2)C(=O)CNS(=O)(=O)c2ccc(Cl)cc2)c1 (centres undefined) | . | 3.7% | 0.3% | ?
Cc1ccc(S(=O)(=O)CCC(=O)OCC(=O)N2c3ccccc3CC2C)cc1 (centres undefined) | . | 12.8% | . | 1.1%

Record cards, as listed above. Values in the order: GLA inh pH 4.5 | Rango dissoc inh | miR-21 reporter | Rango complex inh
`CCc1cc2c(NCCC(=O)O)ncnc2s1` as listed: 1.7 | -12.8% | -1.3% | -2.9%
`CCOC(=O)C1(Cc2ccccc2C(F)(F)F)CCN(C2CCN(C(C)=O)CC2)CC1` as listed: 3.5 | -7.4% | -4.4% | 3.4%
`CCCN1C(=O)/C(=C2\SC(N3CCCCC3)=NC2=O)c2ccccc21` as listed: -13.0 | -10.7% | -54.4% | -3.5%
`CCn1c(C)cs/c1=N\C(=S)Nc1ccccc1C` as listed: -8.3 | -16.9% | -12.9% | 0.1%

Remaining list, next part.
SMILES | GLA inh pH 4.5 | Rango dissoc inh | miR-21 reporter | Rango complex inh
CC1(C)C=C(c2ccc(C=O)s2)CC(C)(C)N1C=O | 4.9 | 0.7% | -7.3% | 1.7%
CCn1c(SCC(=O)Nc2ccc(S(=O)(=O)Nc3onc(C)c3C)cc2)nnc1-c1ccccc1 | -5.2 | 4.6% | -7.0% | -2.6%
N=C(N)SCCN | -2.8&7.2&-5.1 | 14.1% | . | -2.5%
Cc1cccc(C(=O)NCCC(=O)Nc2ccc(C#N)cc2)c1 | . | 4.1% | -3.7% | 1.1%
COc1ccc(S(=O)(=O)N2CCN(c3ccccn3)CC2)c(OC)c1 | . | -15.2% | -0.6% | -0.4%
O=C(c1cc2cc(F)ccc2[nH]1)N1CCN(C(=O)c2ccco2)CC1 | . | 18.2% | -13.5% | 0.6%
Cc1ccccc1-n1c(-c2ccc3ccccc3n2)n[nH]c1=S | -6.1 | -10.0% | -14.8% | 4.0%
CCOC(=O)/C(N=Nc1c(C)n(C)n(-c2ccccc2)c1=O)=C(/O)c1ccccc1 | -5.9 | 9.5% | -14.6% | 3.5%
Cc1oc(-c2ccccc2)nc1CS(=O)CC(=O)N1CCc2ccccc2C1 (centres undefined) | 1.0 | ? | -12.5% | ?
Cc1ccccc1C(=O)N=c1ccn(-c2nc3ccccc3nc2NS(=O)(=O)c2ccc(F)cc2)cc1 | . | -6.0% | 16.0% | ?
C/C(=N\NS(=O)(=O)c1ccc(Br)cc1)c1ccncc1 | . | -11.5% | -2.4% | -1.6%
COc1ccc(-c2[nH]nc3c2C(c2ccoc2)C(C#N)=C(N)O3)cc1 (centres undefined) | -5.9 | 7.8% | -5.6% | 3.6%
CCOc1ncccc1C(=O)Nc1cccc(C(=O)Nc2cccc(S(=O)(=O)CCO)c2)c1 | -1.9 | -9.5% | 10.0% | 1.9%
COc1cccc(CC(=O)Nc2cc(S(=O)(=O)N3CCOCC3)ccc2OC)c1 | . | 0.6% | . | -0.9%
Cc1ccc(-c2nc3ncccc3o2)cc1NC(=O)COc1ccccc1 | -2.2 | -0.2% | -0.6% | -0.4%
COCCNC(=O)c1ccccc1NC(=O)CSc1ccc(C)cc1 | -1.2 | -7.3% | 3.8% | -0.7%
Cc1ccc2nc(SCC(=O)NCc3ccco3)c(C#N)cc2c1 | 6.9 | 1.5% | -42.8% | 3.1%
COc1ccc(N(C(=O)c2cnccn2)C(C(=O)NC2CCCCC2)c2ccccc2)cc1 (centres undefined) | . | -11.6% | 2.8% | 5.0%
O=[N+]([O-])c1ccc(/C=N/Nc2ccnc3cc(Cl)ccc23)o1 | . | ? | -12.4% | ?
Cc1onc(-c2ccccc2)c1C1=N/C(=C\c2ccccc2F)C(=O)O1 | 2.8 | -8.7% | -2.4% | -0.4%
O=C(c1ccco1)N1CCN(C(c2ccccc2F)c2nnnn2CC2CCCO2)CC1 (centres undefined) | -1.8 | 3.1% | 1.2% | 2.5%
O=C(CSc1nnc(-c2ccccc2O)o1)Oc1ccc(OCc2ccccc2)cc1 | 3.6 | 8.3% | -41.6% | 0.1%
Cc1cc(N2CCOCC2)nc(SCC(=O)c2ccccc2)n1 | -6.2 | -4.2% | -60.2% | -0.7%
COc1ccc(OCC(O)CN2CCN(c3ccccc3)CC2)cc1 (centres undefined) | -4.8 | 0.5% | -7.4% | -0.8%
CC1(C)Cc2c(cnn2-c2ccccc2)C(=O)/C1=N\NC(=O)c1ccncc1 | . | -6.9% | . | -0.1%
CCN1C(=O)N[C@@H](CCc2ccccc2)[C@@H](C(=O)OC)[C@H]1C | 8.5&9.7 | 3.7% | -0.2% | 5.7%
Cc1cc(C(=O)N2CCC(Cc3ccccc3)CC2)ccc1[N+](=O)[O-] | -6.9 | 5.1% | 0.2% | 4.6%
COc1cccc(NC(=O)NCc2ccccn2)c1 | . | -19.3% | -18.0% | -4.2%
Cc1cc2nc(SCCOC(=O)Nc3cccc(Cl)c3)nc(C)c2cc1C | -11.0 | -1.4% | -10.1% | -1.7%
COc1cccc(/C=N/Nc2ccc([N+](=O)[O-])cn2)c1O | . | -6.0% | 22.6% | 0.1%
CC(=O)Nc1ccc(-c2nc3ccccc3o2)cc1 | . | 15.1% | -53.5% | -0.2%
CCNc1nc(NCC)n2c(SC(C(=O)Nc3cc(C)ccc3C)c3ccccc3)nnc2n1 (centres undefined) | -4.4 | -16.0% | -1.7% | 1.1%
CC1(C)c2ccccc2N2CCC(=O)NC21/C=C/c1ccco1 (centres undefined) | 8.2 | ? | -7.2% | ?
COCCNC(=O)CSc1cc(-c2ccccc2)c2ccc(OC)cc2n1 | -19.0 | 21.5% | 4.5% | 1.2%
O=C(Nc1cccnc1)c1cccnc1 | 0.4 | 12.8% | -1.2% | 4.0%
Cc1ccc(S(=O)(=O)N(Cc2ccccc2Cl)C(=O)N2CCN(C)CC2)cc1 | . | -4.8% | . | ?
O=C(NCCc1ccc(Cl)cc1)c1cccc(N2CCCC2=O)c1 | . | 6.8% | -38.7% | 1.1%
O=C(NC1CCSC1=O)c1ccc(Oc2ccc(F)cc2)nc1 (centres undefined) | -1.5 | 1.7% | -6.7% | -0.6%
COc1ccc(OC)c(N(CC(=O)NCc2ccncc2)S(C)(=O)=O)c1 | 14.7 | 0.8% | -1.0% | 3.2%
COC(=O)Cc1cc(=O)n(-c2nc3ccccc3s2)[nH]1 | 2.0 | -2.7% | -3.6% | -4.0%
CCOC(=O)Cn1nnnc1CN(Cc1cccs1)Cc1cc2cc(C)ccc2[nH]c1=O | -6.5 | -10.0% | -3.1% | -5.0%
O=C(CSc1cn[nH]n1)Nc1ccccc1C(=O)O | . | -0.1% | -0.4% | 0.2%
CC(Sc1nnc(-c2ccc(Cl)cc2Cl)n1Cc1ccccc1)C(=O)Nc1nccs1 (centres undefined) | 3.1 | -1.7% | 21.8% | 0.0%
CC(C)(C)c1ccc(NC(=O)COC(=O)C2(C)CC2(Cl)Cl)cc1 (centres undefined) | -12.9 | -28.0% | -51.0% | -0.8%
Cc1ccccc1NC(=O)Cc1nc(COC(=O)/C=C/c2ccccc2)cs1 | . | -5.0% | . | -1.6%
COc1ccc(/C=N/NC(=O)CN(C2=NS(=O)(=O)c3ccccc32)c2ccccc2)cc1OC | 0.1 | -3.5% | -10.1% | 0.2%
O=c1/c(=C/c2ccc(O)cc2)sc2nc3cc(Br)cnc3n12 | 7.0 | . | -19.6% | .
O=C(NCCCNc1ccc(C(F)(F)F)cc1[N+](=O)[O-])c1ccc(F)cc1 | -10.7 | 2.4% | -0.1% | 4.8%
Cn1ccnc1SCC(=O)Nc1cccc(O)c1 | 19.0 | 8.1% | -25.0% | 1.9%
O=C(Cn1ncc2c3ccccc3n(Cc3ccccc3)c2c1=O)NCCN1CCOCC1 | . | 16.1% | 0.9% | -2.9%
NS(=O)(=O)c1ccc(NC(=O)COc2ccc(C(=O)c3ccc(F)cc3)cc2)cc1 | -1.1 | -8.2% | 17.5% | -2.3%
Nc1nnc(SCC(=O)Nc2cccnc2Cl)s1 | . | 20.4% | . | 0.5%
COc1ccc(NC(=O)CC2C(=O)N(c3ccc(OC)cc3)C(=O)N2CCN2CCN(C)CC2)cc1 (centres undefined) | -4.8 | 0.3% | -21.1% | ?
Cc1ccc(N2C(=O)C3CCC(c4ccccc4)CC3C2=O)cc1 (centres undefined) | 1.7 | 3.1% | -8.9% | 5.4%
COc1ccc(NC(=O)Cn2nnc(C(=O)NCc3ccccc3OC)c2N)cc1Cl | 3.5 | -6.4% | -17.8% | -7.3%
O=c1c2ccccc2nc(/C=C/c2ccc(O)cc2)n1CCc1ccccc1 | -7.6 | ? | ? | ?
